Screens as filed in PubChem.
NPYLR7 agonist = activates Aedes aegypti NPYLR7 receptor. 0.15% of 270,000 active. AID 1259423. activation, % at 10 µM. HEK293T NPYLR7/Galpha15, GCaMP6s calcium fluorescence; in the data active = activation above about 40%;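 also: 0% = vehicle and 100% = reference agonist at the receptor; some compounds past the cut are filed as inactive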
NPYLR7 agonist max-min = recorded beside NPYLR7 agonist, whose call it bears; activation, %; measured here: Max-Min RFU normalised activation; some inactives read as strong as hits;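 span of the calcium signal over five minutes; 0% = vehicle and 100% = native peptide agonist; compound fluorescence can raise it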
* hit, by the source's call; & = joins results of further samples. The list is partial (hit frequency here may not be typical).

structure	NPYLR7 agonist	NPYLR7 agonist max-min
O=C(NCCNC(=O)C1CCN(C(=O)C(Cl)c2ccccc2)CC1)c1ccccc1 (stereo not drawn)	23.8	30.6
O=C(CSC1=NS(=O)(=O)c2ccccc2N1)Nc1ccccc1	9.6	5.2
COc1ccc(NC(=O)c2cc3ccccc3oc2=O)cc1OC	-8.9	-14.9
CC(C)=CC(=O)NCCc1ccc(Br)s1	5.0	4.3
Cc1ccc2c(CC(=O)Nn3cnc4ccccc4c3=O)coc2c1C	6.3	1.4
CCc1ccc(C(=O)NCC2(c3ccc(C)cc3)CCOCC2)cc1	-0.3	-3.5
NC(=O)NC(=O)CCn1ccnc1-c1cccc(C(F)(F)F)c1	1.6	1.9
CCCn1ccnc1SCC(=O)NC(=O)NC12CC3CC(CC(C3)C1)C2	0.9	-0.5
COc1ccc2nc(NC(=O)Cn3ncc(=O)c4ccccc43)sc2c1	-0.1	-0.2
CCOC(=O)[C@@H]1[C@H](c2ccccc2)[C@@H](NC(=O)c2ncoc2-c2ccccc2)[C@H]2CCCN21	-2.7	2.3
CC(/C=C1\N=C(c2cccc(C)c2)OC1=O)=C\c1ccccc1	-4.2	-6.2
CCN(CC)C(=O)Cn1cc(SCc2ccc(C)cc2)c2ccccc21	-2.4	-5.2
C[C@H](C(=O)NCCCN1CCOCC1)N1Cc2ccc(-c3ccnn3C)nc2C1=O	3.8	0.4
Cc1ccc(C)c(Nc2nc(N3CCN(C)CC3)nc3nccnc23)c1	3.9	4.4
O=C(CCN1C(=O)CSc2ccccc21)NCc1ccccc1Cl	2.9	-0.1
Cc1ccc(CN(CC(O)COc2ccc(Cl)cc2)CC2CCCO2)o1 (stereo not drawn)	28.8	40.4
CCOC(=O)c1nn(-c2ccc(F)cc2)c(=O)c2c(NC(=O)C3CCCC3)scc12	4.4	0.6
COCCCN(Cc1c(-c2ccccc2)noc1N1CCC(C)CC1)C(=O)c1ccc2c(c1)OCO2	2.7	5.0
CCN(CC)c1onc(-c2ccccc2)c1CN(CCCOC)C(=O)COC	6.8	9.7
O=C1NCCCC[C@@H]1NS(=O)(=O)NCc1ccccc1	-0.1	-4.2
COc1ccc2cc(C(=O)Nc3cccc(C(F)(F)F)c3)c(=N)oc2c1	-5.5	-8.9
CCCCc1nnc(SCc2ccc(OCC)cc2)n1N	-10.0	-17.3
O=C(Nc1ccccc1)C12CC1/C(=N/O)c1ccccc1O2 (stereo not drawn)	2.2	-5.5
O=C(Nc1ccc(N2CCc3ccccc3C2)c(C(=O)NCCN2CCOCC2)c1)c1ccc(C(F)(F)F)cc1	-2.6	5.6
Cn1c(C(=O)N2CCC(NS(C)(=O)=O)C2)cc(Cl)c1Cl (stereo not drawn)	-5.0	-7.5
COc1ccc(N2CCN(C(c3ccco3)C3Sc4nc(C)nn4C3=O)CC2)cc1 (stereo not drawn)	4.8	0.4
Cc1ccoc1C(=O)N(C)Cc1ccc(N(C)C)cc1	3.0	3.0
CCn1c(O)c(C2=c3cc(Cl)cc(Cl)c3=NC2=O)sc1=S	4.7	5.1
Cc1ccc(N(CC(=O)NC2CC2)S(=O)(=O)c2ccc(F)cc2)cc1	-5.0	-13.8
Cc1cc2c(cc1C)NC(c1ccc([N+](=O)[O-])o1)C1C(=O)CC(C)(C)CC1=N2 (stereo not drawn)	-6.9	-12.2
COc1ccccc1-c1cccc(C(=O)NCCS(C)(=O)=O)c1	7.4	-2.8
CN(CCc1ccc(Cl)c(Cl)c1)CCN1CCCC1	2.3	-6.2
O=C(COc1ccccc1)NNC(=O)COc1ccc(Br)cc1	6.8	-0.4
COc1cccc(-c2cc(C(=O)N3CCc4ccccc4C3)n(-c3cccc([N+](=O)[O-])c3)n2)c1	-1.6	3.4
O=C(CCn1ccc(=O)[nH]c1=O)N1CCCC2(C=Cc3ccccc3O2)CC1 (stereo not drawn)	-10.1	-11.7
O=C(CSc1ccc2nnc(CCNC(=O)c3ccccc3)n2n1)Nc1ccccc1	11.2	4.6
COc1ccccc1-n1cnnc1SCC(=O)N(C)CCC#N	2.3	0.4
CCOc1ccc2nc(SCC(=O)Nc3ccccc3OC)sc2c1	-7.3	-12.1
N#Cc1ccc(NC(=O)CSc2nc3ccccc3s2)cc1	-6.4	-12.4
CCCSc1nc2c(c(=O)[nH]1)C(c1cccs1)C(C(=O)OCC)C(C)=N2 (stereo not drawn)	-3.0	-5.4
Cc1csc(C(O)(CC(=O)NC(C)c2nc(C(C)(C)C)no2)C(F)(F)F)n1 (stereo not drawn)	1.2	-0.6
Cc1cc(=O)[nH]c(-n2nc(C)cc2NC(=O)C(C)C)n1	14.1	8.7
CC(C)OCCCNC(=O)C(C#N)C(=O)CC(C)c1ccccc1F (stereo not drawn)	-11.3	-12.8
Cc1cnccc1CN(C)C(=O)CCN1CCCCO1	-0.9	14.7
CCCCCc1ccc(C(=O)Nc2ccc(N3CCN(c4ccccc4OC)CC3)c(C(=O)NC(C)c3ccccc3)c2)cc1 (stereo not drawn)	-2.8	1.3
CCc1nn(-c2ccccc2)c(Oc2ccccc2F)c1CN(CC(O)COc1ccccc1)CC1CCCO1 (stereo not drawn)	19.2	16.4
COc1ccc(C(=O)C2CCCN(S(=O)(=O)c3ccc(Cl)s3)C2)c(C)c1 (stereo not drawn)	13.2	3.8
C=CCc1ccccc1OCCOc1ccccc1/C=N\n1cnnc1	-7.6	-15.2
CC(=O)N(CN1C(=O)c2cccc([N+](=O)[O-])c2C1=O)c1ccc2c(c1)oc1ccccc12	5.2	5.3
C#CCCN1CCN(C(=O)C(NC(=O)c2ccccc2C)C(C)C)CC1 (stereo not drawn)	13.6	10.5
CC1Oc2c(cccc2C(=O)N(C)Cc2cccc(F)c2)NC1=O (stereo not drawn)	10.9	2.5
COc1ccccc1N1CCN(c2ccc(NC(=O)Nc3ccc(Cl)cc3)cc2C(=O)NC2CC2)CC1	-4.4	2.7
CCOc1cccc(CN(CCO)C(=O)c2ccco2)c1	0.0	-6.6
CCN(CC)C1CCN(C(=O)CCC(=O)NC2CCCCCCC2)C1 (stereo not drawn)	1.4	0.0
COc1ccc(S(=O)(=O)N2CCCCC2)cc1NC(=O)CC(C)(C)C	2.5	-5.0
CCCCCCc1ccc(C(=O)N2CCc3nc(-c4cccc(F)c4)[nH]c(=O)c3C2)cc1	-15.2	-10.7
O=C1NC[C@@H](CCC(=O)N2CCc3ccccc32)N2C[C@@H](NCc3ccc(CO)o3)C[C@@H]12	-7.7	-15.1
CC(C)C(=O)Nc1ccc(SCCN(C(C)C)C(C)C)nn1	2.3	0.5
CCOC(=O)C1CCCN(C(=O)CC(c2ccc(OC)cc2OC)c2c[nH]c3ccccc23)C1 (stereo not drawn)	0.8	8.8
COc1ccc(-c2ccc(=O)n(CCNC(=O)Nc3cccc(C(F)(F)F)c3)n2)cc1	1.8	0.9

The list goes on:
structure	NPYLR7 agonist	NPYLR7 agonist max-min
Cc1cccnc1CNc1cccc(F)n1	-2.6	-3.0
O=C(O)CCC(=O)NNC(=O)CNS(=O)(=O)c1ccccc1	7.4	6.0
COc1cc2sc(C(=O)NCC(F)(F)C(F)(F)F)c(Cl)c2cc1OC	-3.5	-7.1
CCCC(=O)N(CC(=O)N(CCCOC)Cc1cccn1Cc1cccc(C(F)(F)F)c1)Cc1ccccc1	-1.9	2.9
CNc1ncnc2ncn(CCC(=O)Nc3cccc(Cl)c3)c12	0.2	-1.8
O=C1C2=C(S[C@@H]3O[C@H](CO)[C@@H](O)[C@H](O)[C@H]3O2)C(=O)c2ccccc21	3.5	3.4
N#CC1=C2SCCN2C(=N)C(C#N)C1c1ccccc1 (stereo not drawn)	4.7	1.9
O=C(c1cccc2[nH]ccc12)N1CCN(c2cc(-c3ccccc3)[nH]n2)CC1	-6.3	-6.1
Cc1cc(C)n(C)c(=O)c1C(=O)N1CCO[C@@H]2CCCC[C@H]21	-5.9	-10.4
CCc1nnc(CN2CCCN(CC3CC3)C(C(C)C)C2)o1 (stereo not drawn)	11.4	10.3
CN(C)c1ccc(/C=N\N=C(N)c2nonc2N)cc1	-1.3	-3.6
CCOCc1c(C)cc(C)c(C=C(C#N)C#N)c1C	-8.0	-16.3
O=C(OC(c1cncc(F)c1)C1CCCCC1)C1COCCO1 (stereo not drawn)	-8.0&8.5	-11.1&5.5
COCCNC(=O)[C@@]1(OCc2ccc(F)cc2)CC(OCc2ccccc2C#N)[C@H](O)[C@H](O)C1 (stereo partly drawn)	3.9	-1.2
O=C(c1cccs1)N(CCN1CCOCC1)c1nc2c(F)cc(F)cc2s1	9.2	0.8
Cc1nn(C2CCS(=O)(=O)C2)c2nc(-c3cccs3)cc(C(=O)NC3CC3)c12 (stereo not drawn)	0.1	3.2
Cc1ccccc1CN(CC(O)COc1ccccc1C)C1CC1 (stereo not drawn)	0.1	12.0
Cc1ccsc1C(=O)Nc1ncccc1OCc1ccncc1	19.4	13.3
CN(C)N=Cc1cc(Br)c(O)c(Br)c1	3.7	3.5
COC(=O)c1ccc(NC(=O)Cn2ncccc2=O)cc1	-0.2	-1.4
CCC(c1ccc(F)cc1F)S(=O)(=O)CCO (stereo not drawn)	6.7	2.2
CCOc1ccccc1N1CCN(C(=O)Cc2csc(NC(=O)CN(CCOC)C(=O)c3ccccc3Cl)n2)CC1	-8.3	-1.4
CCCCS(=O)(=O)N1CCN(c2cc(-n3ccnc3C)ncn2)CC1	-13.7	-20.1
Cc1ccc(CNC(=O)c2ccc(NC(=O)OC(C)(C)C)cc2)n1C	-3.7	-3.0
COC(=O)c1c(C)nn(-c2cc(Oc3ccccc3)ncn2)c1N	0.1	5.7
c1ccc2ncc(Cn3cnnc3)cc2c1	-6.7	-10.4
CCn1nnnc1SCc1ccc(C(=O)N2C3CCC2CC(Oc2cccc(C#N)c2)C3)cc1 (stereo not drawn)	3.4	14.9
CCN1CCN(c2nc(Nc3cc(C)cc(C)c3)c3cnn(-c4ccccc4)c3n2)CC1	2.1	-0.4
O=C(NCCCNC(=O)[C@H]1CCCN1C(=O)COc1ccccc1)c1ccccc1	21.6	24.2
CCNC(=O)Cn1c(CO)cnc1SCc1cc(OC)cc(OC)c1	-1.9	-3.1

Part of the list above, field by field:
canonical_smiles: Cc1cc(C)n(C)c(=O)c1C(=O)N1CCO[C@@H]2CCCC[C@H]21
  NPYLR7 agonist = -5.9 | NPYLR7 agonist max-min = -10.4

canonical_smiles: COc1cc2sc(C(=O)NCC(F)(F)C(F)(F)F)c(Cl)c2cc1OC
  NPYLR7 agonist = -3.5 | NPYLR7 agonist max-min = -7.1

canonical_smiles: Cc1cccnc1CNc1cccc(F)n1
  NPYLR7 agonist = -2.6 | NPYLR7 agonist max-min = -3.0

canonical_smiles: O=C(O)CCC(=O)NNC(=O)CNS(=O)(=O)c1ccccc1
  NPYLR7 agonist = 7.4 | NPYLR7 agonist max-min = 6.0

Additional entries follow:
SMILES | NPYLR7 agonist | NPYLR7 agonist max-min
CC(c1nccs1)N(C)C(=O)c1cn(Cc2ccccc2Cl)nn1 (stereo not drawn) | 1.2 | -2.3
COc1ccccc1-c1cc(C(=O)N2CCN(Cc3ccc4c(c3)OCO4)CC2)nc2c(-c3ccccc3)c(C)nn12 | 9.3 | 9.0
O=c1c2cc3c(=O)n(-c4ncn[nH]4)ccc3nc2ccn1Cc1ccccc1 | -14.7 | -17.9
COc1cccc(-c2nc(C=Nc3ccc(Br)cc3Br)c(O)o2)c1 | 5.1 | -3.6
CC(C)c1ccc(CCNC(=O)N(C)C(C)c2ccc(F)cc2)cc1 (stereo not drawn) | 0.5 | 10.6
Cc1nn(C)c(C)c1CCC(=O)NCC(O)c1ccccc1Cl (stereo not drawn) | 18.0 | 7.9
CS(=O)(=O)N1CCCCC1C(=O)N1CCN(c2nc3ccc(F)cc3s2)CC1 (stereo not drawn) | -2.0 | -2.5
CCCNC(=O)CN1CN(c2ccccc2)C2(CCN(S(=O)(=O)c3cc(Cl)ccc3Cl)CC2)C1=O | 22.2 | 27.4
Fc1ccc(-c2nc(C3CC3)ncc2-c2nnnn2-c2ccccc2)cc1 | 8.6 | 4.6
Cc1ccc(CN2CCCC(CNC(=O)CNC(N)=O)C2)cc1C (stereo not drawn) | 0.0 | -2.7
Cc1ccccc1C(=O)N1CCC(C(=O)Nc2cc(Cl)ccc2N2CCN(C)CC2)CC1 | 7.5 | 2.1
CCCNC(=O)c1ccc(NC(=O)CC2CCCO2)cc1Cl (stereo not drawn) | 3.7 | 2.7
C=CCNC(=S)N1CCc2cc(OC)c(OC)cc2C1CNC(=O)c1ccc2c(c1)OCO2 (stereo not drawn) | -1.2 | 0.2
NC(=O)c1ccc(C(=O)NCc2cc(Br)c3c(c2)OCO3)nc1 | 1.2 | -0.1
Cc1cccnc1CN(C)C(=O)c1cc(CN2CCC(Cc3ccccc3)CC2)on1 | 14.3 | 5.1
CC(=O)NCCC1CN(Cc2cc3ccccc3n2C)CCO1 (stereo not drawn) | 1.3 | -2.1
Cc1cc(C(=O)NC(c2ccc3c(c2)OCCO3)C(C)C)c(C)o1 (stereo not drawn) | 0.6 | -0.2
CCN(CC)C(=O)Cn1cc(C(=O)N2CCC(OCc3ccccc3)CC2)nn1 | 1.3 | -1.3
CN(C)c1ccc(NC(=O)c2cccc(F)c2)cc1CN(Cc1cccc(F)c1)C(=O)c1ccc(F)cc1 | 18.0 | 12.3
O=S(=O)(c1ccc2c(c1)OCCCO2)N1CCC(c2nc3ccccc3s2)CC1 | 3.9 | 8.2

Reformatted with two lines to a compound: entries from further up.
Values run as follows: NPYLR7 agonist | NPYLR7 agonist max-min
Cc1ccc(CN2CCCC(CNC(=O)CNC(N)=O)C2)cc1C (stereo not drawn)
    0.0 | -2.7
Cc1ccccc1C(=O)N1CCC(C(=O)Nc2cc(Cl)ccc2N2CCN(C)CC2)CC1
    7.5 | 2.1
CCCNC(=O)c1ccc(NC(=O)CC2CCCO2)cc1Cl (stereo not drawn)
    3.7 | 2.7
